GIRK2 activ: opens human GIRK2 potassium channels; 63,000 compounds, 0.05% hits; P48051; calls only for hits at 25 µM; HEK293-GIRK2 thallium flux, Thallos fluorescence; AID 1259325;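 active means among the strongest 0.2% of first-round signals and kept after retests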;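 further: first round at about 10 µM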
Target sequence (P48051 whole entry, looked up): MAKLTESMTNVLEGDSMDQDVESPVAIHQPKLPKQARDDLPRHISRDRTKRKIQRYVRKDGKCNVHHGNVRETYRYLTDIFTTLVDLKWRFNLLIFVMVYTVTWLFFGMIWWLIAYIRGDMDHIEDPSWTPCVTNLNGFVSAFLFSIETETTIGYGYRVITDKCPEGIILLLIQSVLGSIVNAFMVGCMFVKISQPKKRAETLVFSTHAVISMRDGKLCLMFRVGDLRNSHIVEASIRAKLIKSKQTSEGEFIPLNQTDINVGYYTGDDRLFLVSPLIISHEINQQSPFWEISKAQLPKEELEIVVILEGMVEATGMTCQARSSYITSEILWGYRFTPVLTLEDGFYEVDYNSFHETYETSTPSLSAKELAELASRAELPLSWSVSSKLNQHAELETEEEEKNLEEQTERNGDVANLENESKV
Calls only; i = inactive; + = active, no number.

GIRK2 activ	mol
i	O=C(NCc1cccs1)N1CCN(CC(O)c2cccs2)CC1 (centres undefined)
i	CS(=O)(=O)c1ccc(NC(=O)c2ccco2)cc1
i	O=C(CN1CCC(c2nc(-c3ccccc3Cl)no2)CC1)NCc1ccc(Cl)cc1
i	C[C@]12CCC(=O)C=C1CC[C@@H]1[C@@H]2[C@@H](O)C[C@@]2(C)[C@H]1CC[C@]2(O)C(=O)COC(=O)CCC(=O)O
i	COc1ccc(C(=O)NCCC(O)c2cc(C)oc2C)cc1OC (centres undefined)
i	CN1CCN(c2nnc(SCC(=O)Nc3ccc(C(N)=O)cc3)s2)CC1
i	COc1ccc(/C=C/C(=O)c2cc(Cl)ccc2O)c(OC)c1
i	COc1cccc(COc2coc(C(=O)Nc3nnc(C)s3)cc2=O)c1
i	COc1ccc(NC(=O)CSc2nccn2-c2ccc(C(=O)NCc3ccc(C)o3)cc2)cc1
i	O=C(Nc1cnc(N2CCOCC2)nc1)Nc1ccc(Cl)c(C(F)(F)F)c1
i	CC(=O)N1CCc2c(sc(NC(=O)c3ccc4ncsc4c3)c2-c2nc3ccccc3s2)C1
i	O=C(NCc1ccco1)c1ccc(OCc2ccc3ccccc3n2)cc1
i	CCOC(=O)CCC(=O)NCC#CCOc1ccccc1C(N)=O
i	O=C(CC(c1ccccc1)c1ccccc1)NCC1(O)CCOc2ccccc21 (centres undefined)
i	COC(=O)N1CCN(CCNC(=O)CN2C(=O)c3ccccc3C2=O)CC1
i	Cc1cccc(NC(=O)Cn2c(=O)n(Cc3nc(C)no3)c(=O)c3ccccc32)c1
i	CCCCNC(=O)c1ccc(-n2ccnc2SCC(=O)Nc2ccc(C(=O)OC)cc2)cc1
i	Cc1ccc(C)c(C(=O)Nc2nnc(-c3ccsc3)o2)c1
i	CCOc1ccccc1Oc1c(C)oc2c3c(ccc2c1=O)OCN(CC1CCCO1)C3 (centres undefined)
i	COc1ccc(C2(CNC(=O)c3cc4ccccc4[nH]3)CCOCC2)cc1
i	Cc1ccc(S(=O)(=O)c2cn(CC(=O)Nc3ccc(Cl)cc3)c3ccc(F)cc3c2=O)cc1
i	CSc1ccccc1C(=O)N(CCn1cccn1)c1nc2ccccc2s1
i	Cc1cc(C)c(C)c(S(=O)(=O)Nc2ccc(C(=O)NCc3ccccn3)cc2)c1C
i	CC(=O)N[C@@H](Cc1ccc(OP(=O)(O)O)cc1)C(=O)N[C@H]1CCC(=O)N2CCC[C@@H](C(=O)NCc3ccc(O)cc3)N2C1=O
i	O=S(=O)(NCC(c1ccsc1)N1CCOCC1)c1ccc(N2CCCCS2(=O)=O)cc1 (centres undefined)
i	CC(=O)C(C)n1c(CN2CCN(c3ccccc3F)CC2)nc2c1c(=O)n(C)c(=O)n2C (centres undefined)
i	CCc1ccc(S(=O)(=O)NCC2CCN(c3cnccn3)CC2)s1
i	CCn1c(SCC(=O)Nc2ccc(C(C)=O)cc2)nc2c3cc(OC)ccc3n(C)c2c1=O
i	CCCCCC(O)c1cccc(OCc2ccc3ccccc3n2)c1 (centres undefined)
i	CC1CCN(C(=O)CN2CCN(CC(O)c3ccco3)CC2)CC1 (centres undefined)
i	O=C(CN1CCc2[nH]c3ccccc3c(=O)c2C1)NCc1ccc2c(c1)OCO2
i	COc1ccc(C(=O)N2CCN(c3ncnc4c3nnn4-c3ccc(Cl)cc3)CC2)cc1OC
i	CCCCCCCC/C=C\CCCCCCCC(=O)NCC
i	Cc1ccnc(NC(=O)CN2CCN(c3ccc(F)c(F)c3)C2=O)c1
i	CC1CC(OCC(O)C[N+]2(C)CCOCC2)CC(C)(C)C1 (centres undefined)
i	O=C(c1ccccc1Cl)N1CCC(Oc2ccc(C(F)(F)F)cn2)CC1
i	COc1ccc(NC(=O)COc2cc(C)nc(N3CCCCC3)n2)cc1
i	Cn1c(=O)c2c(nc(N3CCN(CCO)CC3)n2CC(O)COc2ccc(Cl)cc2)n(C)c1=O (centres undefined)
i	CCCCCCCCCCCCC(=O)N[C@H]1CCOC1=O
i	Cc1nc2ccccc2n1CC1CCN(C(=O)c2cccc(C(F)(F)F)c2)CC1
i	O=C(NCCOc1ccc(-c2ccccn2)nn1)c1ccccc1C(F)(F)F
i	Cc1cc(Nc2ccc(NC(=O)Nc3ccc4c(c3)OCCO4)cc2)nc(N2CCCC2)n1
i	COc1ccc(C)cc1Nc1nc(C(=O)NCc2ccccn2)cs1
i	CSc1cccc(NC(=O)c2n[nH]nc2Nc2ccc(C)cc2)c1
i	O=C(Cc1ccc(F)cc1)N1CCC(Oc2nc3ccccc3s2)CC1
i	CC(C)(C)NC(=O)N1CCC(CNC(=O)c2ccco2)CC1
i	Cc1nnsc1C(=O)Nc1nnc(C2CC(=O)N(c3ccccc3)C2)o1 (centres undefined)
i	COc1ccc(S(=O)(=O)NCCn2nc(-c3ccccc3)ccc2=O)cc1C
i	CN(CCCC(=O)O)S(=O)(=O)c1ccc(N)cc1
i	Cn1c(=O)c2c(ncn2CC(N)=O)n(C)c1=O
i	COc1cccc(-n2nnnc2SCC(=O)Nc2ccc(OC)c(OC)c2)c1
i	COC(=O)c1ccc(-n2nnc(-c3nc(-c4ccccc4Cl)no3)c2C)cc1
i	COc1ccc(Cl)cc1C(=O)NCc1ccc(C(O)c2cccs2)s1 (centres undefined)
i	CC1CCC2(C(=O)OC3OC(CO)C(O)C(O)C3O)CCC3(C)C(=CCC4C5(C)CC(O)C(O)C(C)(C(=O)O)C5CCC43C)C2C1(C)O (centres undefined)
i	Cc1noc(C)c1CC(=O)NCc1nc2ccccc2[nH]1
i	COc1cccc(NC(=O)Nc2nnc(-c3ccc4c(c3)CCCC4)o2)c1OC

Other compounds.
GIRK2 activ	mol
i	Cn1cc(OCc2ccccc2)c(=O)cc1C(=O)N1CCN(c2ccc(Cl)cc2)CC1
i	O=C(CSc1nnnn1-c1ccc(F)cc1)Nc1ccc(C(=O)O)cc1
i	CCN1C(=O)C(CC(=O)Nc2ccc(OC)cc2)SC1=NS(=O)(=O)c1ccccc1 (centres undefined)
i	Cc1cc(C(O)CCNC(=O)C2COc3ccccc3O2)c(C)o1 (centres undefined)
i	COCCn1nnn(-c2ccc(NC(=O)c3cc(C)oc3C)cc2)c1=O
i	O=C(NCCC(O)c1cccc2ccccc12)C(=O)NCc1ccc(Cl)cc1 (centres undefined)
i	COc1cc(-c2nnc(NC(=O)c3ccc4ncsc4c3)o2)cc(OC)c1OC
i	O=C(NCCc1ccncc1)c1cc(-c2ccco2)on1
i	CCCc1nc2ccccc2n1Cc1ccc(F)cc1
i	Cc1cc(C)cc(Oc2cc(SCC(=O)Nc3ccccc3C)ncn2)c1
i	CSc1cccc(NC(=O)CSc2ccc(-c3nc(C4CC4)no3)cn2)c1
i	Cn1nc(C(=O)OC2CN(c3nc4c(F)cc(F)cc4s3)C2)ccc1=O
i	COc1cccc(CNC(=O)CSc2nccnc2N2CCSCC2)c1OC
i	CCOC(=O)c1sc2ccccc2c1S(=O)(=O)Nc1cccc(C)c1C
i	CCN1C(=O)CSc2cnn(CC(=O)Nc3cc(Cl)ccc3OC)c(=O)c21
i	CCCOc1cccc(C2C(=C(O)c3ccc(OC)cc3)C(=O)C(=O)N2CCN(C)C)c1 (centres undefined)
i	NS(=O)(=O)c1ccc(CNC(=O)c2cc3n(n2)CCCO3)cc1
i	CC(=O)c1ccc(NC(=O)Cn2cc(-c3nc(-c4ccc(C)cc4)no3)ccc2=O)cc1
i	Cc1cc(C)c(C)c(S(=O)(=O)NCc2ccc(C(=O)Nc3cccnc3)cc2)c1C
+	CCn1c(=O)c2c(nc3n(-c4ccccc4OC)c(-c4ccccc4)cn23)n(C)c1=O
i	NC(=O)CSc1nnc(N2CCN(C(=O)Cc3c[nH]c4ccccc34)CC2)s1
i	COCCN1COc2ccc3c(=O)c(-c4ccccc4OC)coc3c2C1
i	NC(=O)c1nnn(-c2ccc(NC(=O)CSc3ccc(F)cc3)cc2)n1
i	CCc1cccc(NC(=O)Cn2nc(NC(C)C)c(-c3nc(-c4ccc(Cl)cc4)no3)c2N)c1

Given as labelled records: 2 of the compounds above.
NS(=O)(=O)c1ccc(CNC(=O)c2cc3n(n2)CCCO3)cc1
- GIRK2 activ = i

CC(=O)c1ccc(NC(=O)Cn2cc(-c3nc(-c4ccc(C)cc4)no3)ccc2=O)cc1
- GIRK2 activ = i

Other records:
GIRK2 activ	mol
i	Cc1cc(C)n(-c2cc(NC(=O)CCSc3ccccc3)ncn2)n1
i	CCOC(=O)c1ccc(NC(=O)Cn2c(C)nc(-c3ccccn3)cc2=O)cc1
i	CCOC(=O)CCC(=O)N1CCC(c2nnc(-c3ccsc3)o2)CC1
i	COc1ccc(SCC2CCN(C(=O)NC(C)C)CC2)cc1
i	O=C(NCC(O)c1ccc2c(c1)CCO2)c1nc2ccccc2s1 (centres undefined)
i	CCCOc1ccc(C2c3c(oc4cc(OC)ccc4c3=O)C(=O)N2CCN(C)C)cc1 (centres undefined)
i	Cn1nnnc1SCC(=O)Nc1ccc(-c2ccn[nH]2)cc1
i	CC(CCc1ccccc1)NC(=O)Cn1cnc2c(c1=O)CCCC2 (centres undefined)
i	O=C(Cn1cnc2c(sc3ccccc32)c1=O)Nc1ccc(Cl)cc1C(F)(F)F
i	O=C(CSc1ncnc2nc[nH]c12)Nc1ccccc1C(F)(F)F
i	Cc1nc(SC(C)c2ccccc2)[nH]c(=O)c1CC(=O)NCc1ccc2c(c1)OCO2 (centres undefined)
i	COc1ccc(-c2csc(CN3CCN(C(=O)c4c(F)cccc4Cl)CC3)n2)cc1
i	NC(=O)Cc1ccccc1Oc1nccc(-c2c(-c3ccc(F)cc3)ncn2C2CCNCC2)n1
i	O=C(NCC1CCN(C(=O)c2cccnc2)CC1)c1cccc(C(F)(F)F)c1
i	COc1cccc2cc(C(=O)NCC3CCN(C(=O)c4snnc4C)CC3)c(=O)oc12
i	COc1cccc(Oc2nccn3c(=O)n(CC(=O)Nc4ccc5c(c4)OCO5)nc23)c1

A different layout for part of the listing above:
molecule | GIRK2 activ
O=C(CC(c1ccccc1)c1ccccc1)NCC1(O)CCOc2ccccc21 (centres undefined) | i
COc1cccc(Oc2nccn3c(=O)n(CC(=O)Nc4ccc5c(c4)OCO5)nc23)c1 | i
CC(=O)c1ccc(NC(=O)Cn2cc(-c3nc(-c4ccc(C)cc4)no3)ccc2=O)cc1 | i
CSc1cccc(NC(=O)CSc2ccc(-c3nc(C4CC4)no3)cn2)c1 | i
Cc1cc(Nc2ccc(NC(=O)Nc3ccc4c(c3)OCCO4)cc2)nc(N2CCCC2)n1 | i
NC(=O)c1nnn(-c2ccc(NC(=O)CSc3ccc(F)cc3)cc2)n1 | i
Cc1cccc(NC(=O)Cn2c(=O)n(Cc3nc(C)no3)c(=O)c3ccccc32)c1 | i

Going on with the list.
GIRK2 activ	mol
i	O=C(NC1CCCCC1)C1CCN(c2ccc(-n3cccn3)nn2)CC1
i	CC1=C([N+](=O)[O-])C(c2ccc(O)cc2)N(C)C(=O)N1C (centres undefined)
i	O=C(COc1cc(=O)n2ccccc2n1)Nc1ccccc1
i	Cc1ccc(S(=O)(=O)Nc2ccc3c(c2)N(C(=O)c2ccccc2)CCC3)cc1C
i	O=C1NC(=O)C(c2ccc(Cl)cc2)=C1Nc1ccc(Cl)c(C(=O)O)c1
i	CCOc1ccc(-c2ccc(=O)n(CCc3nc(-c4ccc(OC(C)C)c(OC)c4)no3)n2)cc1
i	CC(=O)c1cccc(C(=O)NC2CCN(C(=O)c3cn(-c4cccc(F)c4)nn3)CC2)c1
i	Oc1ccc(-c2nc(-c3ccc(F)cc3)c(-c3ccncc3)[nH]2)cc1
i	O=C(c1cc2ccccc2o1)N(CCN1CCOCC1)c1nc2c(C(F)(F)F)cccc2s1
i	CCC(Sc1nc2ncccc2c(=O)n1Cc1ccccc1Cl)C(=O)Nc1ccc(F)cc1 (centres undefined)
i	Cn1c(C2CCC(CNC(=O)c3cc4ccccc4o3)CC2)nc2ccccc21 (centres undefined)
i	CN(CC(=O)Nc1cccnc1)c1nc2ccccc2s1
i	Cc1ccccc1CC(=O)NCc1sc(-c2cccs2)nc1C
i	CCOc1cccc(-c2noc(-c3nn(-c4cccc(C)c4)ccc3=O)n2)c1
i	Cn1nnnc1SCC(=O)N1CCN(Cc2nnnn2-c2ccc(F)cc2)CC1
i	Cc1ccc(S(=O)(=O)c2cn(CC(=O)Nc3cc(C)ccc3C)c3ccc(Cl)cc3c2=O)cc1

An excerpt of the results above, for reference:
GIRK2 activ	mol
i	Cn1nnnc1SCC(=O)N1CCN(Cc2nnnn2-c2ccc(F)cc2)CC1
i	Cc1ccc(S(=O)(=O)c2cn(CC(=O)Nc3cc(C)ccc3C)c3ccc(Cl)cc3c2=O)cc1

Next part.
GIRK2 activ	mol
i	CCOC(=O)CN1N=C(c2ccc(F)cc2)Cn2c1nc1c2c(=O)n(C)c(=O)n1C
i	Cc1cnc(C(=O)NCCn2nc(-c3ccco3)ccc2=O)cn1
i	CCOc1ccc(NC(=O)C(=O)NCCC(O)c2ccccc2)cc1 (centres undefined)
i	O=C(Cn1nc2nc(N3CCOCC3)ccn2c1=O)Nc1ccc(F)c(Cl)c1
i	O=C(CN1CCC(Cn2cnc3ccccc32)CC1)Nc1cccc(F)c1
i	COc1ccc(OC)c(S(=O)(=O)NCCCn2ncccc2=O)c1
i	O=c1c(S(=O)(=O)N2CCCC2)cccn1Cc1cc(=O)n2ccccc2n1
i	O=C(CSc1nnc(N2CCN(C(=O)c3ccc(F)c(F)c3)CC2)s1)NCc1ccco1
i	O=c1[nH]c(=O)n(C2CCCO2)cc1F (centres undefined)
i	Nc1c(-c2nc(-c3ccccc3)cs2)nnn1-c1ccc(F)c(Cl)c1
i	O=C(CC1CCCC1)Nc1ccc(-n2nnc(C(=O)NCC(F)(F)F)n2)cc1
i	COc1cccc2sc(N(C)CC(=O)Nc3ccc4c(c3)OCCO4)nc12
i	COc1cccc(/C=C2\Oc3cc(OS(C)(=O)=O)ccc3C2=O)c1OC
i	O=C(Nc1cccc(N2CCCC2=O)c1)OCc1ccccc1
i	COc1ccccc1C1c2c(oc3cc(C)c(C)cc3c2=O)C(=O)N1CCN(C)C (centres undefined)

A portion of the library; the hit share may differ from the screen's.
